NOMO-1 viab: STK33 inhibitor candidate reducing NOMO-1 cell viability | 37,000 compounds, 7.5% hits | NOMO-1 AML viability, CellTiter-Glo luminescence, 72 h | inhibition, % (no concentration beside the values) | AID 2330;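 active means most replicates above 80%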;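 further: wells of about 30 µL received 25 nL stock; 0% = median of vehicle wells and 100% = reference inhibitor level; the first replicate is given; inactives centre near 10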
The depositor's hits bear a star. A portion of the library; count on the stated rates, not on these rows.

Molecule,NOMO-1 viab
O=C(NC(=S)Nc1ccc(Cl)c(C(=O)O)c1)c1cccc(COc2ccccc2)c1,18
Cc1ccc(C)c(NC(=O)CSc2nnc(-c3ccc(N)cc3)n2C)c1,-1
C[C@H]1CN([C@@H](C)CO)C(=O)c2cccc(NC(=O)C3CC3)c2O[C@@H]1CN(C)Cc1ccc(-c2ccccc2)cc1,49
C[C@@H]1CCCCO[C@H](CN(C)C(=O)Nc2ccc(F)cc2)[C@@H](C)CN([C@H](C)CO)C(=O)c2cc(NS(=O)(=O)c3cccs3)ccc2O1,27
C[C@@H]1CN([C@H](C)CO)C(=O)Cc2cc(NC(=O)NC3CCCCC3)ccc2O[C@@H]1CN(C)C(=O)Nc1ccccc1,-5
O=c1[nH]c(CSCCO)nc2c1C1(CCCCC1)Cc1ccccc1-2,9
C[C@@H]1CN([C@@H](C)CO)C(=O)c2cccc(NC(=O)NC3CCCCC3)c2O[C@H]1CN(C)Cc1ccc(C(F)(F)F)cc1,93*
CC(C)NC(=O)N(C)C[C@@H]1Oc2ccc(NC(=O)c3ccncc3)cc2CC(=O)N([C@@H](C)CO)C[C@@H]1C,-5
C[C@H](CO)N1C[C@H](C)[C@@H](CN(C)Cc2ccc(Oc3ccccc3)cc2)Oc2ccc(NC(=O)Cc3ccccc3)cc2C1=O,58
C[C@H]1CN([C@@H](C)CO)C(=O)c2cccc(NC(=O)c3ccc(-c4nccs4)cc3)c2O[C@@H]1CN(C)C(=O)Nc1ccccc1,-4
C[C@@H]1CN([C@H](C)CO)C(=O)c2cc(NS(C)(=O)=O)ccc2O[C@H]1CN(C)C(=O)Nc1ccc(C(F)(F)F)cc1,-15
COc1ccc(CN(C)C[C@@H]2Oc3ccc(NC(=O)Nc4ccc(F)cc4)cc3CC(=O)N([C@H](C)CO)C[C@@H]2C)cc1,8
C[C@@H]1CN([C@@H](C)CO)C(=O)c2cccc(NS(=O)(=O)c3ccccc3)c2O[C@@H]1CN(C)C(=O)Nc1ccccc1,2
CC(=O)N[C@@H](Cc1ccccc1)C(=O)NN,-17
CNC[C@@H]1OCCCC[C@@H](C)Oc2ccc(NC(=O)CCC(F)(F)F)cc2C(=O)N([C@H](C)CO)C[C@@H]1C,15
C[C@@H]1CN([C@@H](C)CO)C(=O)c2cc(NS(=O)(=O)c3ccccc3)ccc2O[C@H]1CN(C)Cc1ccncc1,23

Quoted at random: two entries already listed
Molecule,NOMO-1 viab
COc1ccc(CN(C)C[C@@H]2Oc3ccc(NC(=O)Nc4ccc(F)cc4)cc3CC(=O)N([C@H](C)CO)C[C@@H]2C)cc1,8
C[C@@H]1CN([C@@H](C)CO)C(=O)c2cccc(NS(=O)(=O)c3ccccc3)c2O[C@@H]1CN(C)C(=O)Nc1ccccc1,2

Carrying on:
Molecule,NOMO-1 viab
C[C@H](CO)N1C[C@H](C)[C@@H](CN(C)C(=O)NC2CCCCC2)Oc2c(NC(=O)NC3CCCCC3)cccc2C1=O,8
Cc1ccc(S(=O)(=O)N(C)C[C@H]2Oc3ccc(NC(=O)Cn4cnnn4)cc3CC(=O)N([C@H](C)CO)C[C@H]2C)cc1,13
C[C@H](CO)N1C[C@H](C)[C@@H](CN(C)S(=O)(=O)c2cn(C)cn2)Oc2ccc(NC(=O)CCCN(C)C)cc2C1=O,2
Cc1ccc(S(=O)(=O)Nc2cc(S(=O)(=O)c3ccc(C)cc3)c(O)c3ccccc23)cc1,13
C[C@@H]1CN([C@@H](C)CO)C(=O)c2cc(NC(=O)Cc3ccccc3)ccc2O[C@H]1CN(C)C(=O)Nc1ccc2c(c1)OCO2,-5
COc1cccc(NC2=C(C#N)C(=O)NC(c3cccc(OC)c3O)S2)c1 (stereo unspecified),11
C[C@H](CO)N1C[C@H](C)[C@@H](CN(C)C(=O)Nc2cccc3ccccc23)Oc2c(cccc2N(C)C)C1=O,-7
C[C@H]1CN([C@@H](C)CO)C(=O)c2cc(NC(=O)Nc3ccc(F)cc3)ccc2O[C@H]1CN(C)S(=O)(=O)c1ccccc1,20

The last 7 compounds of the part above open the next one:
Molecule,NOMO-1 viab
Cc1ccc(S(=O)(=O)N(C)C[C@H]2Oc3ccc(NC(=O)Cn4cnnn4)cc3CC(=O)N([C@H](C)CO)C[C@H]2C)cc1,13
C[C@H](CO)N1C[C@H](C)[C@@H](CN(C)S(=O)(=O)c2cn(C)cn2)Oc2ccc(NC(=O)CCCN(C)C)cc2C1=O,2
Cc1ccc(S(=O)(=O)Nc2cc(S(=O)(=O)c3ccc(C)cc3)c(O)c3ccccc23)cc1,13
C[C@@H]1CN([C@@H](C)CO)C(=O)c2cc(NC(=O)Cc3ccccc3)ccc2O[C@H]1CN(C)C(=O)Nc1ccc2c(c1)OCO2,-5
COc1cccc(NC2=C(C#N)C(=O)NC(c3cccc(OC)c3O)S2)c1 (stereo unspecified),11
C[C@H](CO)N1C[C@H](C)[C@@H](CN(C)C(=O)Nc2cccc3ccccc23)Oc2c(cccc2N(C)C)C1=O,-7
C[C@H]1CN([C@@H](C)CO)C(=O)c2cc(NC(=O)Nc3ccc(F)cc3)ccc2O[C@H]1CN(C)S(=O)(=O)c1ccccc1,20
CC(=O)c1cccc(NC(=O)CN(C2CCCCC2)S(=O)(=O)c2c(C)cc(C)cc2C)c1,7
COc1ccc(CN(C)C[C@@H]2Oc3ccc(NS(=O)(=O)c4ccc(C)cc4)cc3CC(=O)N([C@H](C)CO)C[C@H]2C)cc1,38
O=C(CCCOc1ccc(Cl)cc1Cl)Nc1ccncc1,25
COc1ccc(NC(=O)N(C)C[C@@H]2Oc3c(NS(=O)(=O)c4c(C)noc4C)cccc3C(=O)N([C@H](C)CO)C[C@@H]2C)cc1,5
C[C@@H]1CN([C@H](C)CO)C(=O)c2cc(NC(=O)Nc3ccccc3)ccc2O[C@@H]1CN(C)C,11
c1ccc(Nc2ncnc3sc(-c4ccccc4)cc23)cc1,23
O=C1c2ccccc2C(=O)N1/N=C/c1ccccc1,19
COC(=O)c1c(NC(=O)CCC(=O)O)sc2c1CC(C)(C)OC2,-4
CCOC(=O)c1sc(NC(=O)CSc2nccc(C)n2)c(C#N)c1C,-2
C[C@@H]1CN([C@@H](C)CO)C(=O)c2cc(NC(=O)CCCCCC(=O)Nc3ccccc3N)ccc2O[C@H]1CN(C)C(=O)Nc1ccc(F)cc1,30
Cc1cccc(NC(=O)CN2C(=O)CNC2=O)c1,12
C[C@@H]1CN([C@H](C)CO)C(=O)c2cccc(NC(=O)c3ccc(-c4nccs4)cc3)c2O[C@@H]1CN(C)C(=O)Nc1ccccc1,7
CC(O)CNc1nc2c(c(=O)n(Cc3ccccc3F)c(=O)n2C)n1C (stereo unspecified),-1
COc1ccc(S(=O)(=O)N(C)C[C@H]2Oc3ccc(NS(=O)(=O)c4c(C)noc4C)cc3C(=O)N([C@@H](C)CO)C[C@H]2C)cc1,9
CC(=O)Nc1ccc(Br)cc1-c1nc2ccccc2[nH]c1=O,-29
COc1ccc(S(=O)(=O)N(C)C[C@H]2Oc3ccc(NC(=O)C4CC4)cc3C(=O)N([C@H](C)CO)C[C@@H]2C)cc1,-13
Cc1ccc(S(=O)(=O)Nc2ccc3c(c2)CC(=O)N([C@H](C)CO)C[C@H](C)[C@H](CN(C)Cc2ccc(Cl)c(Cl)c2)O3)cc1,100*
CNC[C@H]1Oc2ccc(NC(=O)C3CC3)cc2CC(=O)N([C@H](C)CO)C[C@H]1C,-4
C=CCSc1nnc(-c2ccc(C(F)(F)F)cn2)s1,-28
Cc1cc(C(=O)Nc2ccc(S(=O)(=O)Nc3onc(C)c3C)cc2)c(C)o1,-5
C[C@H]1CN([C@@H](C)CO)C(=O)c2cccc(NC(=O)NC3CCCCC3)c2O[C@@H]1CN(C)Cc1ccc(-c2ccccc2)cc1,38
C[C@H](CO)N1C[C@H](C)[C@H](CN(C)C(=O)Nc2ccc(C(F)(F)F)cc2)Oc2c(NC(=O)c3ccncc3)cccc2C1=O,21
CNC[C@H]1Oc2c(NC(=O)C3CC3)cccc2C(=O)N([C@@H](C)CO)C[C@H]1C,-22
COc1ccc(C(N)=O)cc1NC(=O)CC(O)(C(F)(F)F)C(F)(F)F,27
N#CCCn1cc(CO)c(-c2ccc(Cl)cc2)n1,0
COc1ccc(NC(=O)CSc2ncnc3sc(-c4ccccc4)cc23)cc1Cl,-7
C[C@H]1CN([C@@H](C)CO)C(=O)c2cccc(NC(=O)c3ccc(-c4nccs4)cc3)c2O[C@@H]1CN(C)Cc1ccc(Cl)c(Cl)c1,63
CCn1c(SCC(=O)c2cccc([N+](=O)[O-])c2)nnc1-c1cccnc1,5
CCOc1ccc(-n2c(SCC(=O)c3ccc(Br)cc3)nnc2-c2cccnc2)cc1,21
CCOc1ccc(-n2c(C)nnc2SCC(=O)Nc2ccc(Br)cc2F)cc1,5
Cc1sc(N)nc1C12CC3CC(CC(C3)C1)C2,105*
C[C@@H]1CN([C@@H](C)CO)C(=O)Cc2cc(NC(=O)CCN3CCOCC3)ccc2O[C@@H]1CN(C)C,-8
C[C@@H]1CN([C@H](C)CO)C(=O)c2cc(NC(=O)Nc3cccc4ccccc34)ccc2O[C@@H]1CN(C)Cc1ccc(Cl)c(Cl)c1,101*
Cc1nnc(SCc2cc(=O)[nH]c(N3CCN(Cc4ccccc4)CC3)n2)s1,30
CN(C)c1ccc(NC(=O)CC2NCCNC2=O)cc1 (stereo unspecified),-21
COc1ccc(S(=O)(=O)Nc2ccc3c(c2)CC(=O)N([C@@H](C)CO)C[C@H](C)[C@@H](CN(C)Cc2ccc(C(F)(F)F)cc2)O3)cc1,113*
C[C@@H]1CCCCO[C@@H](CN(C)S(=O)(=O)c2ccc(Cl)cc2)[C@@H](C)CN([C@H](C)CO)C(=O)c2cc(NC(=O)C3CCCCC3)ccc2O1,19
CC(C)NC(=O)N(C)C[C@@H]1Oc2ccc(NC(=O)CCC(F)(F)F)cc2CC(=O)N([C@H](C)CO)C[C@@H]1C,-15
COc1ccc(S(=O)(=O)Nc2ccc3c(c2)C(=O)N([C@@H](C)CO)C[C@H](C)[C@@H](CN(C)S(=O)(=O)c2cn(C)cn2)O3)cc1,10
C[C@H](CO)N1C[C@H](C)[C@@H](CN(C)C(=O)Nc2ccccc2)Oc2c(NC(=O)Nc3ccc4c(c3)OCO4)cccc2C1=O,45
C[C@@H]1CCCCO[C@H](CN(C)C)[C@@H](C)CN([C@H](C)CO)C(=O)c2cc(NS(=O)(=O)c3ccccc3)ccc2O1,23
C[C@@H]1CN([C@H](C)CO)C(=O)c2cccc(N(C)C)c2O[C@H]1CN(C)CC1CC1,-3
C[C@H]1CN([C@@H](C)CO)C(=O)c2cc(NC(=O)c3ccncc3)ccc2O[C@@H]1CN(C)S(=O)(=O)c1cccs1,-17
Cc1noc(C)c1NC(=O)N(C)C[C@@H]1Oc2c(NC(=O)c3cnccn3)cccc2C(=O)N([C@@H](C)CO)C[C@H]1C,29
C[C@@H]1CN([C@@H](C)CO)C(=O)Cc2cc(NS(C)(=O)=O)ccc2O[C@@H]1CN(C)Cc1ccc(C(=O)O)cc1,5
C[C@H](CO)N1C[C@H](C)[C@@H](CN(C)S(=O)(=O)c2ccccc2)Oc2c(NC(=O)Nc3cccc4ccccc34)cccc2C1=O,3
Cc1ccccc1NC(=O)c1cnn2c(C(F)(F)F)cc(-c3ccco3)nc12,6
Cc1ccc(N(C(C)C(=O)Nc2ccc(Br)cc2F)S(C)(=O)=O)cc1C (stereo unspecified),-15
O=C(Nc1ccccc1C(=O)NCc1ccco1)c1ccc(-c2ccccc2)cc1,-6
O=C(Oc1ccc(Cl)cc1)c1csc(C2COc3ccccc3O2)n1 (stereo unspecified),6
C[C@@H]1CN([C@@H](C)CO)C(=O)Cc2cc(NC(=O)Nc3ccccc3)ccc2O[C@@H]1CN(C)Cc1ccc(C(=O)Nc2ccccc2N)cc1,124*
Cc1ccc([N+](=O)[O-])cc1NC(=O)CN(c1cc(C(F)(F)F)ccc1Cl)S(C)(=O)=O,22
COc1ccc(CC(=O)Nc2ccc(NC(=O)c3ccco3)cc2)cc1OC,114*
Cc1ccc(S(=O)(=O)Nc2cccc3c2O[C@H](CN(C)S(=O)(=O)c2ccc(F)cc2)[C@@H](C)CN([C@@H](C)CO)C3=O)cc1,16
COC(C)(C)CCCC(C)C/C=C/C(C)=C/C(=O)O (stereo unspecified),1
N#Cc1c(NC(=O)/C=C/C(=O)O)sc2c1CCC2,7

Going on with the list.
Molecule,NOMO-1 viab
C[C@@H]1CCCCO[C@H](CN(C)Cc2ccc(C(F)(F)F)cc2)[C@@H](C)CN([C@H](C)CO)C(=O)c2cc(NS(=O)(=O)c3ccc(F)cc3)ccc2O1,100*
COc1ccc(CN(C)C[C@H]2Oc3ccc(NC(=O)Nc4cccc5ccccc45)cc3C(=O)N([C@@H](C)CO)C[C@@H]2C)cc1,20
Cc1noc(C)c1S(=O)(=O)Nc1ccc2c(c1)CC(=O)N([C@H](C)CO)C[C@H](C)[C@H](CN(C)Cc1ccc(Cl)c(Cl)c1)O2,71
C[C@@H]1CN([C@@H](C)CO)C(=O)c2cccc(NC(=O)Nc3ccc(C(F)(F)F)cc3)c2O[C@@H]1CN(C)CC1CC1,56
CS(=O)(=O)N(CC(=O)Nc1ccc(Br)c(Cl)c1)c1ccc(F)cc1,64
COc1ccc(NC(=O)Nc2ccc3c(c2)C(=O)N([C@@H](C)CO)C[C@@H](C)[C@H](CN(C)S(=O)(=O)c2cn(C)cn2)O3)cc1,20
Cc1c(Br)c([N+](=O)[O-])nn1CC(=O)Nc1sc2c(c1C#N)CCCC2,28
C[C@@H]1CN([C@@H](C)CO)C(=O)Cc2cc(NC(=O)Nc3ccc4c(c3)OCO4)ccc2O[C@@H]1CN(C)Cc1ccc(Oc2ccccc2)cc1,107*
CCN=C1SC(CC(=O)Nc2sc3c(c2C(=O)OCC)CCCC3)C(=O)N1CC (stereo unspecified),19
